# Screening data as filed in PubChem.
# StopGo reporter = FMDV 2A StopGo reporter, luciferase signal; human cells with a luciferase reporter of 2A StopGo recoding; control for the full effect not named in the record; Potency, µM (titrated, usually from 57.9 µM), inactives show top-dose signal change, negative = less light; 410,000 tested, 1.2% active; active = well fitted falling curve with a large enough effect; inconclusive = small, poorly fitted or top-dose-only effect; inactive = no such curve, though single readings can be large or run the other way; tested in HEK293T cells; note: % is set by controls: 0 for no effect and ±100 for the full control effect; nearly all actives have a fitted effect of over 45% in size; luciferase light after 4 h
# Cruzain inh noDet = inhibitors of Trypanosoma cruzi cruzain without detergent | Potency, µM, without a hit: max response, negative = inhibition, most hits filed as inhibitors | P25779 | purified cruzain, Z-FR-AMC fluorescence, no detergent | 200,000 tested, 2.3% active;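 note: plate controls were enzyme without inhibitor for no effect and buffer without enzyme for full effect; nearly all actives have a fitted effect of over 40% in size; top concentration of the series not given in the record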
# Target sequence (P25779 123-467 limits assumed): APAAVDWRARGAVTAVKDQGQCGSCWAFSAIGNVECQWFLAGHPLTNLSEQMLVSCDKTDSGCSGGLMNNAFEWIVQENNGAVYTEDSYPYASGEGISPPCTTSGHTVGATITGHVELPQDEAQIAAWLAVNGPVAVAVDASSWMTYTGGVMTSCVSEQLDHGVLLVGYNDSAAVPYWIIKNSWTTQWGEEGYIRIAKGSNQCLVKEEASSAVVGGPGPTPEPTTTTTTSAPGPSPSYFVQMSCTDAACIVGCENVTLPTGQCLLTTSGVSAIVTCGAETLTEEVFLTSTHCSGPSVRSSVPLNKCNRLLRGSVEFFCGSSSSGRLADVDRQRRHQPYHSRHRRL
#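 Detergent-free condition (0.00005% Triton X-100) in acetate buffer pH 5.5 with DTT. 1.5 nM enzyme and compound were pre-mixed 15 min, then 2 uM Z-FR-AMC substrate added; reaction progress from fluorescence change between first and third reads (60 s).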
# RE007 growth inh = less growth of the S. pombe RE007 Vpr strain | S. pombe RE007 Vpr strain, BacTiter-Glo ATP luminescence, 24 h; control for the full effect not named in the record | Potency, µM (doses to about 92.2 µM), inactives show top-dose activity change, negative = less growth | 360,000 tested, 0.21% active | AID 651644; active = well fitted falling curve with a large enough effect; inconclusive = small, poorly fitted or top-dose-only effect; inactive = no such curve, though single readings can be large or run the other way;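 note: % is set by controls: 0 for no effect and ±100 for the full control effect; nearly all actives have a fitted effect of over 50% in size; the assay follows cell death caused by Vpr and the record does not say whether a fall means rescue or toxicity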
#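 Fission yeast strain RE007, carrying one chromosomally integrated HIV-1 vpr copy, was seeded at OD 0.01 in PMG+AL medium with 23 nL pinned compound. After 24 h at 30 °C and 99% humidity, viability was read by BacTiter-Glo luminescence.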
# Marburg entry inh = inhibitors of Marburg virus binding or cell entry; Marburg virus pseudotyped entry inhibition, cell reporter; control for the full effect not named in the record; about a third of the inactives were read at about 46 µM; Potency, µM (doses to about 37.8 µM), without a hit: at the top dose activity change, negative = inhibition, usual class: inhibitors; 300,000 tested, 1.8% active; AID 540276; active = well fitted inhibition curve with a large enough effect; inconclusive = small, poorly fitted or top-dose-only effect, or effect the other way; inactive = flat fitted curve, though single readings scatter; tested in HEK293 cells; about a fifth of its hits are not listed in these tables; note: % is set by controls: 0 for no effect and ±100 for the full control effect; luciferase read-out
# LASV entry inh = inhibitors of Lassa virus binding or cell entry | Lassa virus pseudotype entry inhibition, cell reporter; control for the full effect not named in the record | Potency, µM (series often up to 37.9 µM), for the others: at the highest dose activity change, negative = inhibition, usual class: inhibitors | 300,000 tested, 1.2% active | AID 540256; active means well fitted inhibition curve with a large enough effect; inconclusive means small, poorly fitted or top-dose-only effect, or effect the other way; inactive means flat fitted curve, though single readings scatter; tested in HEK293 cells; note: % is set by controls: 0 for no effect and ±100 for the full control effect; nearly all actives have a fitted effect of over 50% in size; luciferase read-out
# SARS PLP yeast = SARS-CoV PLP inhibition in yeast. AID 485353. Potency, µM (highest dose often 32.9 µM), for the others: top-dose activity, positive = growth rescue. 330,000 tested, 0.19% active. S. cerevisiae expressing SARS-CoV PLpro, growth rescue; control for the full effect not named in the record; active means well fitted rising curve with a large enough effect; inconclusive means small, poorly fitted or top-dose-only effect; inactive means no such curve, though single readings can be large or run the other way; note: 0% is about no effect; nearly all actives have a fitted effect of over 55% in size; growth read by luminescence after 48 h
# NS1 function inh = blocks influenza NS1 protein function; S. cerevisiae slowed by influenza A NS1, growth recovery by OD600; Potency, µM (series often up to 46.1 µM), for inactives: top-dose activity, positive = more growth; 270,000 tested, 0.4% active; active means well fitted rising curve with a large enough effect; inconclusive means small, poorly fitted or top-dose-only effect; inactive means no such curve, though single readings can be large or run the other way; note: nearly all actives have a fitted effect of over 50% in size
#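 Recovery from NS1-induced slow growth read by OD600 in budding yeast switched to galactose assay medium (pH 6.0, -URA) at 1:100 dilution. Compound 23 nl per well; the matching strain lacking NS1 serves as control.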
# Cruzain inh Det = blocks cruzain activity in presence of Triton detergent. P25779. purified cruzain, Z-FR-AMC fluorescence, 0.01% Triton. Potency, µM, for inactives: max response, negative = inhibition, hits mostly inhibitors. 200,000 tested, 0.43% active;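 note: plate controls were neutral wells for no effect and buffer without enzyme for full effect; nearly all actives have a fitted effect of over 40% in size; top concentration of the series not given in the record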
#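 Cysteine protease activity tested under reducing, mildly acidic conditions (100 mM sodium acetate pH 5.5, 5 mM DTT) plus 0.01% Triton X-100. Cruzain 1.5 nM; substrate Z-FR-AMC 2 uM; 15 min compound preincubation at room temperature.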
# * hit, by the source's call; u = inconclusive; x = no result given; & = joins results of further samples; [ ] = remark or other dose. Unless noted, calls come from the whole dose curve; as a rule, active = well fitted curve in the direction sought with a large enough effect; inconclusive = small, poorly fitted or top-dose-only effect, or another doubt; inactive = no such curve, though single readings can be large; an effect the other way counts as inactive or inconclusive. Potency is the fitted concentration of half-maximal effect.
(1) CCOC(=O)c1ccc(NC(=O)CN2C(=O)CSC(C)C2=O)cc1 (stereo unspecified)
(2) COCCCNc1ncnc2c1sc1nc(-c3ccco3)c3c(c12)CC(C)(C)OC3
(3) COc1ccc(/C=C2\SC(=O)N(CC(=O)NNC(=O)c3ccccc3O)C2=O)cc1OC
(4) COC(=O)c1cc2c(C)c(C)c3ccccn3c-2c1C(=O)OC
(5) O=C1COc2ccc(C(=O)CSc3nnc(-c4cccs4)n3Cc3ccccc3)cc2N1
(6) CC1=CC2/C=C(\C)CCC(O)C(O)/C=C/C(=O)C23C(=O)NC(CC(C)C)C3C1C (stereo unspecified)
entry no.	1	2	3	4	5	6
StopGo reporter	67%[activator]	-30%	-8%	u	u	6.3µM*
Cruzain inh noDet	-1%	x	0%	10%	u	x
RE007 growth inh	6%	-5%	14%	2%	7%	7%
Marburg entry inh	-1%	-20%	0%	-22%	u	x
LASV entry inh	11%	u	-1%	-15%	u	x
SARS PLP yeast	2%	0%	-4%	18%[6.58 µM]	-4%	0%
NS1 function inh	-5%	5%	u	5%	4%	2%
Cruzain inh Det	-8.6%	x	-9.0%	-1.4%	-6.1%	x

# Compounds 3–6 of the list above:
(3) COc1ccc(/C=C2\SC(=O)N(CC(=O)NNC(=O)c3ccccc3O)C2=O)cc1OC
(4) COC(=O)c1cc2c(C)c(C)c3ccccn3c-2c1C(=O)OC
(5) O=C1COc2ccc(C(=O)CSc3nnc(-c4cccs4)n3Cc3ccccc3)cc2N1
(6) CC1=CC2/C=C(\C)CCC(O)C(O)/C=C/C(=O)C23C(=O)NC(CC(C)C)C3C1C (stereo unspecified)
entry no.	3	4	5	6
StopGo reporter	-8%	u	u	6.3µM*
Cruzain inh noDet	0%	10%	u	x
RE007 growth inh	14%	2%	7%	7%
Marburg entry inh	0%	-22%	u	x
LASV entry inh	-1%	-15%	u	x
SARS PLP yeast	-4%	18%[6.58 µM]	-4%	0%
NS1 function inh	u	5%	4%	2%
Cruzain inh Det	-9.0%	-1.4%	-6.1%	x

# Other results
(7) COc1ccc(CNC(=O)C2=CC(c3ccc(OC)cc3)=NS(=O)(=O)N2C)cc1
(8) O=C(C1Cc2ccccc2CN1S(=O)(=O)c1cccs1)N1CCCCC1 (stereo unspecified)
(9) CCOc1ccc(C2C(C(=O)c3cccs3)=C(O)C(=O)N2CCN2CCOCC2)cc1 (stereo unspecified)
(10) COc1ccc(/C=N\NC(=O)C2CCCC2)cc1Br
(11) Oc1ccc(C2C[C@H]3CC[C@@H]2C3)cc1O (stereo partly specified)
(12) Cc1ccc(CN(Cc2cccnc2)C(=S)Nc2cc(Cl)ccc2C)cc1
entry no.	7	8	9	10	11	12
StopGo reporter	-9%	33%[activator]	22%	17%	-18%	-16%
Cruzain inh noDet	x	2%	x	x	x	x
RE007 growth inh	-7%	11%	1%	6%	2%	-11%
Marburg entry inh	x	2%	x	11%[46.1 µM]	u	u
LASV entry inh	x	16%	x	18%[46.1 µM]	8%	u
SARS PLP yeast	-6%	-1%	2%	-3%	-3%	22%
NS1 function inh	6%	-2%	0%	-1%	-36%	x
Cruzain inh Det	x	-7.6%	x	x	x	x

(13) O=C(CCc1ccc(S(=O)(=O)NC2CCCCC2)cc1)NCc1cccnc1
(14) CCOCCCNC(=O)c1cc2c(=O)n(C)c3ccccc3c2n1C
(15) O=C(CSc1nc2ccccc2nc1Cc1ccccc1)Nc1ccccc1C(F)(F)F
(16) O=C(O)C(Cc1ccccc1N(CCO)CCO)N1C(=O)c2ccccc2C1=O (stereo unspecified)
(17) COc1ccc(-c2cc(-c3n[nH]c(=S)n3-c3ccccc3OC)[nH]n2)cc1
(18) COc1ccc(C(=O)NC2CCN(CC(=O)Nc3cccc(C)c3)CC2)cc1OC
entry no.	13	14	15	16	17	18
StopGo reporter	13%	-10%	-16%	-3%	-9%	-10%
Cruzain inh noDet	x	-11%	-11%	x	4%	7%
RE007 growth inh	6%	x	x	-7%	25%	3%
Marburg entry inh	2%	-1%[46.1 µM]	x	-7%[46.1 µM]	u	u
LASV entry inh	-6%[46.1 µM]	u	-4%[46.1 µM]	0%[46.1 µM]	3%	13%
SARS PLP yeast	1%	x	x	x	9%	-13%
NS1 function inh	1%	x	x	x	-18%	4%
Cruzain inh Det	x	-1.7%	2.9%	x	-5.7%	0.5%

(19) O=C(O)C(CCCCN1C(=O)C2C3C=CC(C3)C2C1=O)N1C(=O)C2C3C=CC(C3)C2C1=O (stereo unspecified)
(20) O=C(c1ccccc1)c1c[nH]c(C(=O)NNc2ccccc2)c1
(21) C#CCNC(=O)C1=C[C@H](c2coc3ccccc3c2=O)C[C@H](OCc2ccc(CO)cc2)O1
(22) Cn1c(SCCOc2cccc(Cl)c2)nnc1-c1ccncc1
(23) COc1ccc(CNC(=O)CN(C(=O)c2csnn2)c2ccc(F)cc2)cc1
(24) COc1cc(C(=O)N2CCCc3ccccc32)cc(OC)c1OC
entry no.	19	20	21	22	23	24
StopGo reporter	-18%	-14%	-10%	-13%	8%	-13%
Cruzain inh noDet	12%	x	x	-4%	x	0%
RE007 growth inh	24%	267%	-2%	0%	3%	3%
Marburg entry inh	u	x	x	u	0%[46.1 µM]	-30%
LASV entry inh	-1%	u	x	6%	23%	-27%
SARS PLP yeast	-4%	-2%	-1%	3%	9%	2%
NS1 function inh	-5%	0%	-1%	-2%	10%	-6%
Cruzain inh Det	3.9%	x	x	9.5%	x	-1.5%

(25) CCOC(=O)C1(Cc2cccc(OC)c2)CCN(C2CCOCC2)CC1
(26) NS(=O)(=O)c1ccc(NC(=O)NC2CCCCC2)cc1
(27) O=C(CNC(=O)c1sc2ccccc2c1Cl)Nc1ccccc1F
(28) COc1cc2c(C#N)c(N3CCc4ccccc4C3)nc(N)c2c(N)n1
(29) COC(=O)c1c(C)n(Cc2ccccc2)c2ccc(O)cc12
(30) CN=C(N)NCCCC(N)C(=O)O (stereo unspecified)
entry no.	25	26	27	28	29	30
StopGo reporter	-8%	18%	34%[activator]	0%	-10%	x
Cruzain inh noDet	x	8%	x	13µM*	x	8%
RE007 growth inh	1%	-21%	4%	13%	1%	x
Marburg entry inh	4%	7%	u	u	-7%[46.1 µM]	u
LASV entry inh	3%	18%	13%	7%	-4%[46.1 µM]	x
SARS PLP yeast	-6%	3%	-1%	-6%	-1%	x
NS1 function inh	-2%	2%	x	-49%	1%	-3%
Cruzain inh Det	x	5.1%	x	-8.6%	x	-2.5%

(31) CCOC(=O)c1c(NC(=O)CSc2nc3nc(C)cc(C)n3n2)sc(CC)c1C
(32) CCOC(=O)C1(CC2CCCCO2)CCN(Cc2cccnc2)CC1 (stereo unspecified)
(33) CS(=O)(=O)N(Cc1ccccc1)c1ccc(C(=O)Nc2ccccc2C(=O)O)cc1
(34) Cn1c(O)c(N=NC(=N)N)c2ccccc21
(35) Cc1ccc(S(=O)(=O)N2CCN(C(=O)COC(=O)CNC(=O)c3ccc(Cl)cc3Cl)CC2)cc1
(36) CC1=Nn2c(nnc2-c2ccccc2Cl)SC1
entry no.	31	32	33	34	35	36
StopGo reporter	-27%	-16%	-11%	-9%	29%	12%
Cruzain inh noDet	u	x	x	x	x	-2%
RE007 growth inh	-7%	-5%	-16%	-8%	8%	10%
Marburg entry inh	-1%	0%[46.1 µM]	x	x	u	3%
LASV entry inh	u	12%	x	x	3%[46.1 µM]	2%
SARS PLP yeast	u	1%	-3%	0%	-1%	8%
NS1 function inh	-3%	-8%	16%	7%	x	6%
Cruzain inh Det	0.0%	x	x	x	x	3.3%

(37) CCOc1ccccc1CNC(=O)CNC(=O)c1cccs1
(38) COc1ccc(CCNC(=O)C23CN(Cc4ccccc4)CC2C(c2cccc([N+](=O)[O-])c2)=NO3)cc1 (stereo unspecified)
(39) Cc1onc(-c2c(Cl)cccc2Cl)c1C(=O)Nc1c(C)n(C)n(-c2ccccc2)c1=O
(40) CCc1ccc(CNC(=O)c2cc3ccccn3n2)cc1
(41) C[N+]1(CCCCC[N+]2(C)CCCC2)CCCC1
(42) COCCN1Cc2cccc(C(=O)Nc3ccc(C)cc3)c2C1=O
entry no.	37	38	39	40	41	42
StopGo reporter	24%	-13%	-12%	39%[activator]	-3%	2%
Cruzain inh noDet	x	-7%	-5%	-17%	-7%&-8%&-5%	x
RE007 growth inh	3%	-1%	-13%	x	x	0%
Marburg entry inh	x	x	-5%	x	u	-28%[46.1 µM]
LASV entry inh	x	x	-1%	u	u	-7%[46.1 µM]
SARS PLP yeast	21%	-1%	-1%	x	x	-9%
NS1 function inh	1%	2%	-11%	x	-3%	x
Cruzain inh Det	x	-0.3%	-2.6%	-2.9%	3.3%&5.1%&-2.4%	x

(43) Cc1ccc(NC(=O)N2CCCC(C(=O)O)C2)cc1 (stereo unspecified)
(44) CC(C)(C)c1ccc(C(=O)NCc2ccc(Cl)cc2)cc1
(45) Cc1ccccc1NC(=O)OCc1ccccc1
(46) COc1cc(S(=O)(=O)NC2CCCC2)ccc1F
(47) Cc1ccc(/C([O-])=C(/C(=S)NCc2ccco2)[n+]2ccccc2)cc1
(48) CCOc1ccc(CCNC(=O)Cn2c(=O)c3cccn3c3cccnc32)cc1
(49) Cc1ccc(CNC(=O)CCC2CCCN(Cc3cc4ccccc4o3)C2)o1 (stereo unspecified)
(50) COC(=O)Nc1ccc2ncn(C)c(=O)c2c1
entry no.	43	44	45	46	47	48	49	50
StopGo reporter	19%	x	30%[activator]	0%	x	2%	-20%	-20%
Cruzain inh noDet	x	u	x	0%	7%	x	x	3%
RE007 growth inh	-13%	-11%	-6%	12%	x	5%	-17%	5%
Marburg entry inh	8%	0%	5%[46.1 µM]	-3%	x	-21%[46.1 µM]	x	x
LASV entry inh	x	-18%	8%[46.1 µM]	0%	x	3%[46.1 µM]	x	x
SARS PLP yeast	3%	3%	-9%	-5%	-3%	-4%	-5%	-2%
NS1 function inh	-2%	17%	-10%	5%	4%	1%	-1%	1%
Cruzain inh Det	x	5.7%	x	3.6%	-12%	x	x	4.5%
